# Screening data as filed in PubChem.
# Vaccinia mCherry – qHTS for Stage-Specific Inhibitors of Vaccinia Orthopoxvirus: mCherry Reporter Primary qHTS. Vaccinia virus mCherry reporter infection, fluorescence; about a quarter of the inactives have no number. 0.63% of 310,000 active. Potency, µM (highest dose often 36.5 µM), for inactives: at the highest dose activity change, negative = inhibition, usual class: inhibitors; active = well fitted inhibition curve with a large enough effect; inconclusive = small, poorly fitted or top-dose-only effect; inactive = no such curve, though single readings can be large or run the other way; tested in A549 cells; also: nearly all actives have a fitted effect of over 35% in size; inactives centre near -10
# Vaccinia Venus – qHTS for Stage-Specific Inhibitors of Vaccinia Orthopoxvirus: Venus Reporter Primary qHTS. Potency, µM (highest dose often 36.5 µM), for the others: at the highest dose activity change, negative = inhibition, hits mostly inhibitors. Vaccinia virus Venus reporter expression, fluorescence. 0.46% of 330,000 active; active means well fitted inhibition curve with a large enough effect; inconclusive means small, poorly fitted or top-dose-only effect; inactive means no such curve, though single readings can be large or run the other way; tested in A549 cells; also: nearly all actives have a fitted effect of over 30% in size; inactives centre near -10
# Starred values were filed as active, the others as inactive; i = inactive; u = inconclusive; x = no result given; & = joins results of further samples; [ ] = another dose, or the depositor's remark. % is scaled to controls: 0 for no effect and ±100 for the full control effect; potency is read from the fitted curve at half-maximal effect.
SMILES,Vaccinia mCherry,Vaccinia Venus
Cc1cccc(NC(=O)CCS(=O)(=O)c2ccccc2)n1,-10%,-5%
O=C(Nc1nnc(-c2cc(Cl)ccc2Cl)o1)C1=COCCO1,-13%,-6%
COc1ccc(C2CC(Cn3cc(C#N)c(=O)n(C)c3=O)ON2C)cc1 (configuration not stated),i,-8%
Cc1cc(Cl)ccc1C1=CC(=O)C[C@H](c2ccc(F)cc2)C1,i,-13%
Cc1ccc(S(=O)(=O)N2[C@H](CC(=O)c3ccc(Cl)c(Cl)c3)OC[C@@H]2C(C)C)cc1,i,-20%
Nc1ccn(Cc2cccc(F)c2)n1,-22%,-8%
O=C(Cn1cnc2c(oc3ccccc32)c1=O)Nc1ccccc1C(F)(F)F,-3%,0%
O=C(CCC1CCN(C(=O)c2cccc(Cl)c2F)CC1)Nc1ccccc1,-4%,-26%
Nc1ccc(Cl)cc1C(=O)c1ccc[nH]1,-2%,-24%
CCN(CC)c1ccc(NC(=O)c2ccccc2F)cc1S(=O)(=O)Nc1ccccc1OC,-4%,-14%
CCCN(C)C1CN(Cc2cn(Cc3cc(C)cc(C)c3)nn2)S(=O)(=O)C1 (configuration not stated),32%[activator],-1%
CCCCOC(=O)C1[C@H]2C(=O)N(CCc3ccccc3)C[C@]23C=C[C@H]1O3 (some centres not stated),-14%,-5%
O=C(NCc1ccc2c(c1)OCO2)C(=O)Nc1ccccc1,i,-6%
CCOC(=O)C1(Cc2cccc(OC)c2)CCCN(C(=O)CSC)C1 (configuration not stated),-11%,-13%
c1ccc(-c2csc(Nc3nc(N4CCOCC4)nc(N4CCOCC4)n3)n2)cc1,x,-12%
C=CCn1c(SCC(=O)Nc2ncc(Cc3ccc(Br)cc3)s2)nnc1-c1ccncc1,-14%,-7%
CCCCNC(=O)C(=O)NCCCn1ccnc1,9%,1%
NS(=O)(=O)c1ccc(NC(=O)COC(=O)C2CC2)cc1,-25%,-7%
CCSc1nc2ccccc2[nH]1,-18%,1%
COc1cc(N=Nc2ccc(Br)cc2)cc(C=O)c1O,-21%,u

# An excerpt of these results, with tabs.
SMILES	Vaccinia mCherry	Vaccinia Venus
Cc1cccc(NC(=O)CCS(=O)(=O)c2ccccc2)n1	-10%	-5%
COc1ccc(C2CC(Cn3cc(C#N)c(=O)n(C)c3=O)ON2C)cc1 (configuration not stated)	i	-8%

# The main list resumes with the 2 entries that preceded the break.
SMILES,Vaccinia mCherry,Vaccinia Venus
CCSc1nc2ccccc2[nH]1,-18%,1%
COc1cc(N=Nc2ccc(Br)cc2)cc(C=O)c1O,-21%,u
COc1ccc(N2C(=O)CCC(C(=O)O)C2c2ccc(F)cc2)cc1 (configuration not stated),-8%,-2%
O=C(c1cccnc1)N1CCN(C(=O)c2ccco2)CC1,i,-4%
CCN(C(=O)CN1CCN(c2cccc(Cl)c2)CC1)c1c(N)n(Cc2ccccc2)c(=O)[nH]c1=O,-1%,-10%
Cc1[nH]c(C)c(S(=O)(=O)NCCc2ccccc2)c1C(=O)N1CCCC1,-12%,-5%
CC(C)N=C(NC(C)C)N1CC1,-1%,0%
O=C(COc1ccc(Cl)cc1Cl)Nc1ccccc1F,-9%,-20%
OC[C@@H]1CN(Cc2ccc(-c3ccccc3)cc2)C[C@H](n2cnc3c(NC4CC4)ncnc32)O1,14%,-17%
CN(C)/N=C/c1c(O)ccc2ccccc12,x,-13%
CCc1ccc([C@@H]2CC=C(C(=O)O)[C@H](c3ccc(Br)cc3)N2S(=O)(=O)c2ccc(C)cc2)cc1,i,-9%
CN1CCN(C(=S)NC(CC(=O)c2ccccc2)c2ccccc2)CC1 (configuration not stated),i,-3%
COc1ccccc1-c1cn(CC[C@H]2CC[C@@H](NS(=O)(=O)c3ccccc3C)[C@@H](CO)O2)nn1,-7%,-24%
O=C(C1CCC(CNc2c(N3CCOCC3)c(=O)c2=O)CC1)N1CCN(c2ccccc2)CC1 (configuration not stated),11%,-4%
Cc1ccc(OCCNC(=O)/C=C/c2ccccc2)cc1,-9%,2%
CCOc1ccc(Nc2c(S(=O)(=O)c3ccccc3)cnc3ccc(F)cc23)cc1,-12%,-16%
CCOc1cc(-c2nc(-c3ccc(OC)cc3)no2)cc(OCC)c1OCC,x,-5%
C=CCN(c1ccc(Cl)cc1)S(=O)(=O)c1cccc(C(=O)O)c1,-13%,-12%
CCOC(=O)Cc1csc(SCn2nnc3ccccc3c2=O)n1,-10%,2%
COc1cccc(C(=O)NCC(=O)OCC(=O)c2ccccc2)c1,i,-7%
COc1ccc(C(=O)Nc2ccc(OCC(=O)N3CCOCC3)cc2)c(OC)c1OC,-15%,3%
C=CCOC(=O)N1CCC2CC1c1cc(-c3cccc(C)c3)ccc12 (configuration not stated),i,9%

# Profiles, quoted from the list:
# Shown for C=CCOC(=O)N1CCC2CC1c1cc(-c3cccc(C)c3)ccc12 (configuration not stated) = Vaccinia mCherry = i; Vaccinia Venus = 9%
# Shown for CCOc1cc(-c2nc(-c3ccc(OC)cc3)no2)cc(OCC)c1OCC = Vaccinia mCherry = x; Vaccinia Venus = -5%
# Shown for O=C(C1CCC(CNc2c(N3CCOCC3)c(=O)c2=O)CC1)N1CCN(c2ccccc2)CC1 (configuration not stated) = Vaccinia mCherry = 11%; Vaccinia Venus = -4%

# Next part:
SMILES,Vaccinia mCherry,Vaccinia Venus
COc1cccc(-c2nc(CS(=O)(=O)CC(=O)NC3CCCc4ccccc43)c(C)o2)c1 (configuration not stated),-15%,-26%
CNCC(O)c1ccc(O)cc1 (configuration not stated),i,-13%
CN(C)c1ccc(Cl)c(NC(N)=S)c1,3%,-4%
Cc1cccc([N+](=O)[O-])c1NC(=O)COC(=O)C1CC2CCCC(C1)C2=O (configuration not stated),i,-1%
CC1(C)C(Cl)C(=O)C(C(=O)c2ccccc2)C(=O)C1Cl (configuration not stated),i,-4%
Cc1ccccc1NC(=O)Nc1nc(C(N)Cc2ccccc2)cs1 (configuration not stated),u,u
CCOc1ccc(C(=O)Nc2ccc3oc(-c4ccc5ccccc5c4)nc3c2)cc1,-20%,-21%
COc1cccc(CC(=O)NCCCSc2ccccc2)c1,-5%,-3%
CC(C)(C)C(=O)COc1ccccc1[N+](=O)[O-],-20%,-1%
O=c1[nH]c2ccccc2nc1/C=C(\O)c1cccs1,i,2%
CC(=O)c1ccc(NC(=O)C(C)Sc2n[nH]c(-c3cccnc3)n2)cc1 (configuration not stated),-1%,-10%
Cc1ccc(CCN2C(Nc3ccccc3)=NC[C@@H]2C)cc1,-12%,-16%
CN(C)c1c(Br)cc(C=O)cc1Br,44%[activator],4%
Cc1ccc(SCC(=O)Nc2ccc(-c3nnc(-c4ccco4)o3)cc2)cc1,x,u
COC(=O)[C@@]1(C(C)C)N=C(c2cc(OC)c(OC)c(OC)c2)[C@]2(O1)C(=O)Nc1ccccc12,11%,2%
Cc1nc2ccc(NC(=O)c3ccc(=O)[nH]c3)cc2s1,-11%,-4%
Cc1ccc(C(=O)OCC(=O)Nc2c(C)nn(-c3ccccc3)c2C)c(O)c1,i,-5%
CCN1CC2([N+](=O)[O-])CC=C(Cl)C([N+](=O)[O-])(C1)C2 (configuration not stated),-7%,4%
O=C(OCCOc1cccc(Cl)c1)c1cc(S(=O)(=O)N2CCCCC2)ccc1N1CCOCC1,u,u
CCN(CC)c1ccc(C(=O)NNC(=O)c2cccn2C)cc1,-25%,-5%
CCCCN(C)Cc1c(C)[nH]c2c(Cl)cccc2c1=O,-5%,6%
CSCCC(NC(=O)OCc1ccccc1)C(=O)O (configuration not stated),-10%,3%
CC(C)c1ccc(N(C(=O)c2ccc3c(c2)OCO3)C2C=CS(=O)(=O)C2)cc1 (configuration not stated),-20%,-10%
Cc1nc(N2CCOCC2)nc(OCCN2CCOCC2)c1[N+](=O)[O-],-4%,-7%
CCOc1ccc(C(=O)c2cn(CC(=O)Nc3ccc(F)c(F)c3)c3cc4c(cc3c2=O)OCCO4)cc1,-29%,-24%
CCOc1ncccc1C(=O)Nc1cc(S(=O)(=O)N2CCCCC2)ccc1Cl,i,-9%
Cc1cccc2cc(CN(C(=O)c3ccc(-c4ccc(F)cc4)cc3)C3CC3)c(N3CCC(O)CC3)nc12,u,-20%
O=C(Cn1ccc2cc(S(=O)(=O)N3CCCCC3)ccc21)NCc1cccc(Cl)c1,-14%,-19%
COC(=O)C1C(O)=C(C(C)=N)C(=O)CC1(C)C (configuration not stated),x,-23%
O=C(COC(=O)/C=C/c1ccccc1)Nc1cccnc1Cl,-1%,0%
O=C(Cc1ccc(Cl)cc1)N1CCN(C(=O)c2ccco2)CC1,i,-10%
COc1ccc(C(=O)Nc2c(F)c(F)c(F)c(F)c2F)cc1OC,38%[activator],1%
O=C(Nc1nc(-c2ccc(S(=O)(=O)N3CCOCC3)cc2)cs1)c1ccccc1,-21%&-14%,-21%&-26%
CNc1oc(Cc2cccc3ccccc23)nc1C#N,-7%,-18%
Cc1ccc(N2C(=O)c3ccccc3C2(O)c2ccccc2)cc1 (configuration not stated),i,-13%
CCNC(=O)/C(C#N)=C/c1c(N2CCOCC2)nc2ccccn2c1=O,-10%,-2%
CC(C)[C@H](NC(=O)N1CC(=O)Nc2ccccc21)C(=O)N[C@H](Cc1c[nH]c2ccccc12)C(=O)O,-3%,1%
Cc1nc(C)c(NC(=O)N2CCc3ccccc32)cc1NC(=O)N1CCc2ccccc21,x,-32%
CSc1ccccc1C(=O)N1CCCC(CCC(=O)NCc2ccc(F)c(F)c2)C1 (configuration not stated),-30%,-27%
C=C(C)C(=O)N1CC2(CC(c3cccc(NC(=O)/C=C\C=C/C)c3)=NO2)C[C@H]1C(N)=O (some centres not stated),-3%,-9%
COc1ccc(/C=C2\C(=O)ON=C2c2ccccc2)cc1,-10%,2%
O=C(C[n+]1cccc2cc(Cl)ccc21)c1ccc2ccccc2c1,u,350%[activator]
CN1CCN(c2nc(-c3ccccc3)nc3c2oc2ccccc23)CC1,3%,10%
O=C(COc1ccccc1[N+](=O)[O-])N1CCN(c2ccccn2)CC1,-18%,-8%
CCOc1ccc(C(=O)CC(=O)C(=O)NCCc2ccc(OC)c(OC)c2)cc1,-16%,-8%
CC(C)CCN1C(Nc2ccccc2)=NC[C@@H]1Cc1ccccc1,-10%,-16%
O=c1[nH]c2ccc(Cl)cc2c(O)c1Cc1ccccc1,-1%,1%
COc1cc(CC(=O)NCc2ccc3c(c2)OCO3)cc(OC)c1OC,-12%,0%
CCNS(=O)(=O)c1ccc(-c2ccc(-n3cnnn3)cc2)cc1,6%,3%
CCOC(=O)c1nnn(-c2nonc2N)c1COc1ccccc1,x,2%
O=S(=O)(NCC(c1ccc2c(c1)OCO2)N1CCOCC1)c1ccccc1 (configuration not stated),i,-9%
COCCCNC(=O)C[C@H]1C[C@H](C(=O)N(C(C)C)C(C)C)[C@@]2(C)c3[nH]c4cc(CCC(=O)N(C)C)ccc4c3CCN2C1=O,-5%,-11%
CCOC(=O)C1CCN(C(=O)COc2cccc3ccccc23)CC1,-5%,-14%
COc1cc(/C=C(\C#N)C(=O)NC2CCCCC2C)ccc1OS(=O)(=O)c1ccc(C)cc1 (configuration not stated),-10%,0%
Cc1ccc(NC2CCCN(C(=O)CCn3nccc3C)C2)cc1C (configuration not stated),-17%,-16%
Clc1ccc(N2CCN(Cc3nnc(-c4ccc5c(c4)OCO5)o3)CC2)cc1,-10%,-10%
CC(C)CCN1CCN(Cc2ccoc2)CC1CCO (configuration not stated),-14%,-9%
CCc1cc(C=NC2CCCCC2)c(O)s1,-16%,-13%
CCC(Oc1ccccc1F)C(=O)NCCN1CCOCC1 (configuration not stated),-18%,1%
Cc1ccccc1OCc1nnc(SCC(=O)Nc2ccc(N3CCOCC3)cc2)n1C,-23%,-20%

# The final three entries of the section before lead into the next.
SMILES,Vaccinia mCherry,Vaccinia Venus
CCc1cc(C=NC2CCCCC2)c(O)s1,-16%,-13%
CCC(Oc1ccccc1F)C(=O)NCCN1CCOCC1 (configuration not stated),-18%,1%
Cc1ccccc1OCc1nnc(SCC(=O)Nc2ccc(N3CCOCC3)cc2)n1C,-23%,-20%
CN1C(=O)CC(Sc2ncccc2C(=O)O)C1=O (configuration not stated),-13%,-7%
COc1ccc(CCNC(=O)CCS(=O)(=O)c2ccc3c(c2)CCN3C(C)=O)cc1OC,-21%,-16%
Cn1c(N)c(C(=O)COC(=O)C2CCCC2)c(=O)n(C)c1=O,7%,1%
O=C1NC[C@H](Cc2ccccc2)N(C[C@H]2CCCN2C[C@H](Cc2ccccc2)N2C[C@H](Cc3ccccc3)N(CC3CCCCC3)C(=O)C2=O)C1=O,u,u
COc1cccc(NC(=O)COC(=O)C2=NN(c3ccccc3)C(=O)CC2)c1,-15%,-3%
O=C(NCCN1CCOCC1)c1csc2c1CCCCC2,-2%,-23%
CC(=O)Nc1ccc(NC(=O)CSc2nnc(NC(=O)C3CC(=O)N(c4ccc(F)cc4)C3)s2)cc1 (configuration not stated),0%,-11%
COc1cc2c(NC3CCN(C)CC3)nc(N3CCCN(C)CC3)nc2cc1OCCN(C)C,u,u
O=S(=O)(c1ccccc1)N1CCc2ccccc21,-7%,3%
C(=C/c1nccc2c1[nH]c1ccccc12)/c1ccc2c(c1)OCO2,u,-22%&-21%
Cc1cccc(N(C(=O)c2csnn2)C(C(=O)NC(C)(C)C)c2ccncc2)c1 (configuration not stated),-17%,-10%
COc1cc(Cl)c(C)cc1NC(=O)c1c(C)oc2nc(C)nc(N3CCCC3)c12,-24%,-11%
